Assay outcomes: PubChem, National Center for Advancing Translational Sciences (NCATS)
Vaccinia Venus: qHTS for Stage-Specific Inhibitors of Vaccinia Orthopoxvirus: Venus Reporter Primary qHTS; actives 0.46% (n = 330,000); Vaccinia virus Venus reporter expression, fluorescence; Potency, µM (highest dose often 36.5 µM), inactives show top-dose activity change, negative = inhibition, actives largely listed as inhibitors; active means well fitted inhibition curve with a large enough effect; inconclusive means small, poorly fitted or top-dose-only effect; inactive means no such curve, though single readings can be large or run the other way; tested in A549 cells; note: nearly all actives have a fitted effect of over 30% in size; inactives centre near -10
Vaccinia mCherry: qHTS for Stage-Specific Inhibitors of Vaccinia Orthopoxvirus: mCherry Reporter Primary qHTS | actives 0.63% (n = 310,000) | Potency, µM (doses to about 36.5 µM), without a hit: at the top dose activity change, negative = inhibition, usual class: inhibitors | Vaccinia virus mCherry reporter infection, fluorescence; about a quarter of the inactives have no number; active = well fitted inhibition curve with a large enough effect; inconclusive = small, poorly fitted or top-dose-only effect; inactive = no such curve, though single readings can be large or run the other way; tested in A549 cells; note: nearly all actives have a fitted effect of over 35% in size; inactives centre near -10
Active calls of the source: *; i = inactive; ? = inconclusive; . = not tested or not shown; [ ] = dose if it differs, or a comment. % is set by controls: 0 for no effect and ±100 for the full control effect; potency is the fitted concentration of half-maximal effect.

Sample of the layout:
SMILES,Vaccinia Venus,Vaccinia mCherry
COc1ccc(C(NC(=O)c2ccc(F)cc2)c2ccccc2)cc1 (centres undefined),-10%,-15%
CC(C)CN1C(=O)c2ccc(NC(=O)Cc3ccccc3)cc2C1=O,-12%,-14%
CCN(CC)C(=O)C1=C(C)N(CCCOC)C(=O)C(CC(=O)NCCc2ccccn2)C1 (centres undefined),-19%,i

The listing, previewed entries included:
SMILES,Vaccinia Venus,Vaccinia mCherry
COc1ccc(C(NC(=O)c2ccc(F)cc2)c2ccccc2)cc1 (centres undefined),-10%,-15%
CC(C)CN1C(=O)c2ccc(NC(=O)Cc3ccccc3)cc2C1=O,-12%,-14%
CCN(CC)C(=O)C1=C(C)N(CCCOC)C(=O)C(CC(=O)NCCc2ccccn2)C1 (centres undefined),-19%,i
CCOC(=O)C1C(=O)CC(C)(O)C(C(=O)OCC)C1c1ccc(NC(C)=O)cc1 (centres undefined),15%,i
O=C(Nc1nccs1)[C@@H]1CC=C[C@@H]2CCN(Cc3ccc(Cl)c(Cl)c3)C(=O)[C@@H]21,-18%,-21%
CN1C(=O)NC(c2ccccc2)C2=C1CN(Cc1ccco1)C2=O (centres undefined),-16%,i
Cc1cccc(NC(=S)c2nc3ccccc3s2)c1,-25%,-13%
CC(C)(C)c1ccc(S(=O)(=O)N2CCN(c3nc(-c4ccccc4)nc4ccccc34)CC2)cc1,-13%,-13%
CCc1nn2c(=O)cc(COC(=O)COc3ccc(OC)cc3)nc2s1,7%,4%
O=C(Cc1cccs1)N(Cc1cccs1)C1(C(=O)NC2CCCCC2)CCCCC1,?,-8%
Cn1c(=O)oc2cc(S(=O)(=O)N3CCCCC3)ccc21,-14%,-24%
COc1cc(Cl)c(NC(=O)c2cc(S(=O)(=O)N3CCCCC3)c[nH]2)c(OC)c1,-21%,?
C[C@H]1CN([C@@H](C)CO)C(=O)c2cc(C#CC3CCCC3)cnc2O[C@H]1CN(C)C(=O)Cc1ccccn1,-19%,0%
COc1ccc(-c2nc(C3CCCCC3)c3cc(OC)ccc3n2)cc1,-12%,i
CCc1ccc(C(=O)c2cn(CC(=O)Nc3cccc(OC)c3)c3cc4c(cc3c2=O)OCO4)cc1,-7%,-13%
CCN(CC)CCNC(=O)c1ccc(-n2c(C)cc3c2CCCC3=O)cc1,-19%,i
COc1ccc2c(c1)c(CC(=O)Nc1cccc(F)c1C)c(C)n2C(=O)c1ccc(Cl)cc1,1%,-12%
COc1ccccc1NC(=O)CSc1nc(O)c(C/C=C/c2ccccc2)c(=O)[nH]1,1%,-1%
O=C(NCc1ccco1)c1cc(-c2ccccc2)c(N2CCOCC2)s1,-26%,?
COC(=O)c1onc(-c2c(Cl)cccc2Cl)c1C(=O)OC,-5%,i
COC(=O)c1ccccc1NC(=O)c1oc2ccc3c(c2c1C)C(=O)CC(C)(C)O3,4%,4%
C[C@@H]1CN([C@H](C)CO)C(=O)CCCn2nncc2CO[C@H]1CN(C)Cc1ccc2cccnc2c1,-15%,i
O=C(NC(=S)N1CCN(c2ccccc2)CC1)c1ccco1,-3%,-21%
CC(=O)N1CCC(N(Cc2ccco2)C(=O)Nc2ccc(C)c(Cl)c2)CC1,-7%,8%
CC1(c2nnc(Cc3ccccc3)o2)CC(c2cccc(Cl)c2)=NO1 (centres undefined),-2%,-5%
CC(=O)/C=C\C1[C@]2(C)CCCC(C)(C)C2CC[C@@]1(C)O (some centres undefined),0%,i
Cn1ccc2c(-c3ccc(C(N)=O)cc3)cc3c(c21)C1CCC3C1 (centres undefined),-22%,i
C[C@]12CC[C@H](O)CC1=CC(=O)C1C2CC[C@]2(C)C(=O)[C@H](O)CC12 (some centres undefined),-16%,-1%
O=S1(=O)CCN(Cc2cccc(C(F)(F)F)c2)CC1,-24%,i
O=C(O)COc1ccccc1C1Nc2ccccc2-c2nnc(SCc3ccc(Cl)cc3)nc2O1 (centres undefined),-5%,-13%

Additional compounds.
SMILES,Vaccinia Venus,Vaccinia mCherry
C=CCC[C@@H](Cc1ccc(F)cc1)C(=O)OCCNC(=O)[C@H](CC=C)CC(=O)NCCO,-12%,i
CCCCCCSc1ccc([C@@H]2[C@H]3C(=O)N(C)C(=O)[C@H]3[C@]3(C(=O)OC)CCCCN23)cc1,-25%,-10%
O=C(Nc1ccc(Nc2ccccc2)cc1)c1ccccc1F,-1%,?
CCn1c(=O)n(-c2ccc(F)cc2)c(=O)c2sc3ccccc3c21,1%,-11%
NS(=O)(=O)c1cccc(NC(=O)COC(=O)C2CCN(S(=O)(=O)c3cccs3)CC2)c1,-12%,-20%
CCOC(=O)[C@H]1[C@H]2COc3ccc(C)cc3[C@@H]2N2C(=O)c3ccc(Cl)cc3NC(=O)[C@@]12C,?,i
CSCC[C@H](NC(=O)c1cccc(S(=O)(=O)N2CCCCC2)c1)c1nc2ccccc2[nH]1,-1%,-8%
CC(=O)NC(Cc1ccccc1F)C(=O)NC1CCN(S(=O)(=O)c2ccccc2)CC1 (centres undefined),4%,2%
CCNS(=O)(=O)c1ccc(NC(=O)Nc2ccccc2OC)cc1,-9%,-12%
COc1ccc(S(=O)(=O)c2cc3cc(C(C)(C)C)cc(O)c3oc2=O)cc1,0%,-17%
C=CCn1c(SCC(=O)N2CCN(c3ccc(F)cc3)CC2)nnc1-c1ccco1,-18%,-20%
CCOC(=O)c1c(-c2ccccc2)csc1NC(=O)CCN1CCOCC1,-17%,-10%
Cc1cc(/C=N/NS(=O)(=O)c2ccc(F)c(Cl)c2)no1,-12%[7.34 µM],-8%[7.34 µM]
COCCCC1CCN(C(=O)C2CCC(=O)N(CCc3cccc(F)c3)C2)CC1 (centres undefined),-5%,-9%
Cc1ccc(C(=O)N2CCN3C(=O)c4ccccc4C23c2ccccc2)cc1 (centres undefined),-1%,-8%
Cc1ccc(N/N=C/c2c(O)cc(C)oc2=O)cc1,-10%,.
COc1cccc(NC(=O)Cn2c(=O)n(Cc3ccc(C(=O)NCc4ccc5c(c4)OCO5)cc3)c(=O)c3ccccc32)c1,-3%,6%
CN1CCN(C(=O)c2ccccc2NC(=O)Cc2ccccc2)CC1,12%,.
COc1ccc2cc(S(=O)(=O)N3CCCC(C)C3)ccc2c1 (centres undefined),-3%,i
CN(C)C(C)(C)C#CCCCCC#CC(C)(C)N(C)C,-7%,i
Cc1cccc(CNC(=O)Cc2ccc(NC(=O)N3CCCCc4ccccc43)cc2)c1,-12%,-15%
CC(C(=O)NCc1ccco1)n1cc([N+](=O)[O-])cn1 (centres undefined),9%,-2%
CCc1ccc(NC(=O)C(=O)NCCN2CCN(Cc3ccc([N+](=O)[O-])cc3)CC2)cc1,-10%,-11%
O=C(/C=C/c1ccccc1Cl)NCc1cccs1,-12%,-12%
CC(C)(C)N(NC(=O)Nc1ccc(F)cc1)C(=O)c1ccccc1,-22%,i
CCOc1ccc(NC(=S)NC(C)CCc2ccccc2)cc1 (centres undefined),-11%,-7%
Cc1ccc(-c2nc3ccc(Cl)cn3c2Nc2ccccc2C)s1,?,?
COc1cc(CN2CCSCC2)c([N+](=O)[O-])cc1OC,-12%,0%
O=C(NC(Cc1c[nH]c2ccccc12)C(=O)N/N=C/c1cccnc1)c1cccs1 (centres undefined),10%,-22%
O=C(c1ccc(Cl)cc1)N1N=C(c2ccccn2)CC1(O)C(F)(F)F (centres undefined),?,?

Later entries.
SMILES,Vaccinia Venus,Vaccinia mCherry
CCN(CC)C(=O)Oc1ccnc2cc(Cl)ccc12,-14%,i
COc1cccc(-c2nn(-c3ccccc3)cc2C(=O)OCC(=O)Nc2ncc(Cl)cc2Cl)c1,-4%,-16%
Cc1cccc(N2CCN(Cc3nnc(-c4ccc5c(c4)OCO5)o3)CC2)c1C,7%,0%
O=S(=O)(c1ccc(NCCOc2ccccc2)nc1)N1CCCC1,-5%,-9%
NS(=O)(=O)c1ccc(CCNC(=O)COC(=O)C2CCN(c3ccc(C(F)(F)F)cn3)CC2)cc1,-9%,-13%
COc1ccc(NC(=O)CCn2cccc2)c(OC)c1,-15%,-9%
CC(=O)C1=C(O)C(=O)N(CCc2c[nH]c3ccccc23)C1c1ccco1 (centres undefined),-15%,-20%
COc1ccc(CC(=O)Nc2ccccc2C(F)(F)F)cc1S(=O)(=O)N1CCOCC1,-6%,i
O=P(NC1CCCCC1)(c1ccccc1)c1ccccc1,6%,?
CCc1ccc(-c2nn(CC(=O)NC3CCCCC3)c3c2cnc2ccc(F)cc23)cc1,8%,-7%
COc1ccc(S(=O)(=O)N2CCCCCC2)cc1C(=O)OCc1cccc(OC)c1OC,-13%,-19%
CC(C)(C)OC(=O)C[C@@H]1C/C=C\C[C@@H](CC(=O)N(CCO)Cc2ccccc2)C(=O)N[C@@H](c2ccccc2)COC1=O,?,i
COc1ccccc1-c1nc(C#N)c(N2CCN(c3ccccc3)CC2)o1,-28%,.
c1cnc2ccc(C(c3nnnn3C3CCCC3)N3CCSCC3)cc2c1 (centres undefined),-13%,.
CCOCCCNC(=S)Nc1ccc2nc3n(c(=O)c2c1)CCCCC3,-22%,i
COc1ccc(NC(=S)NCCc2ccccc2)c(C)c1,4%,-4%
CCOC(=O)c1[nH]n(-c2ccc(Cl)cc2)c(=O)c1C,-13%,-9%
O=C(CSc1ncnc2c1cnn2-c1ccccc1Cl)N1CCN(C(=O)c2ccco2)CC1,-15%,i
CCOc1ccccc1N(C(=O)c1snc(C(N)=O)c1N)C(CC)C(=O)NC1CCCC1 (centres undefined),-5%,-9%
NC(c1ccccc1)c1csc(Nc2ccc(C(=O)NCCCO)cn2)n1 (centres undefined),-17%,-29%
COc1ccc(Cl)cc1NC(=O)Cn1c(C)csc1=O,-8%,-14%
CC1CCCCC12NC(=O)N(CC(=O)Nc1nccs1)C2=O (centres undefined),8%,-5%
Clc1ccc(-c2ccc(CNCC3CCCO3)o2)cc1 (centres undefined),-8%,-17%
O=C(OC1CCOC1=O)c1cccc(S(=O)(=O)Nc2cccc(Cl)c2)c1 (centres undefined),-9%,-13%
CCNC(=O)C(C)NC(=O)C1=NN(c2ccccc2)C(=O)CC1 (centres undefined),-15%,0%
CCc1nc(Nc2ccc(F)c(Cl)c2)c2c3c(sc2n1)CCCC3,0%,-12%
N#Cc1cnn(Cc2ccccc2)c1N,?,.
COCCNC(=O)COC(=O)C1=Cc2ccccc2OC1,-14%,i
CCO[C@H]1OC(C(=O)N2CCCCCCC2)=C[C@@H](c2csc3ccccc23)[C@@H]1CCCO,-1%,-5%
CC(C)Cc1nnc(NC(=O)c2cccc(S(=O)(=O)N3CCN(C)CC3)c2)s1,-9%,-1%

(more compounds)
SMILES,Vaccinia Venus,Vaccinia mCherry
O=C(Cn1ncc2c(=O)oc3ccccc3c21)N1CCN(c2ccccn2)CC1,-10%,i
Cc1cc(C)c(C(=O)CSc2nnc(C)s2)c(C)c1,-2%,-6%
CN(C)C(=O)N1CCC(C(=O)NCc2ccc(F)cc2Cl)CC1,-16%,-17%
Cc1cc(S(=O)(=O)Nc2ccc3c(c2)n(C)c(=O)n3C)ccc1F,-10%,i
O=c1c2ccccc2c(-c2ccccc2)nn1Cc1ccccc1,-17%,-19%
COc1ccccc1C(=O)Nc1ccc(C)cc1C(=O)c1ccccc1,-12%,-24%
CCc1nc2ccc(C(=O)Nc3ccc(OC)c(OC)c3)cn2c1N(CC)Cc1ccc(OC)c(OC)c1,-8%,-6%
CCOC(=O)c1ccc(NC(=O)CCc2c(C)nc3c(c(C)nn3C)c2C)cc1,-9%,-1%
COc1ccc(NP2(=O)OCC(C)(N)CO2)cc1 (centres undefined),-9%,-3%
COc1ccc(Cn2nnnc2CN(CCCN2CCOCC2)Cc2cc3cc(OC)ccc3[nH]c2=O)cc1,-12%,-14%
CCN(CC)CCCNC(=O)Cn1c(-c2cccs2)cc2cc(Cl)ccc21,-13%,-15%
OCC1(Cc2cccc(C(F)(F)F)c2)CCN(Cc2cc3ccccc3o2)CC1,?,?
CCOC(=O)C1(CCOc2ccccc2)CCN(Cc2cccc(OC)c2O)CC1,-18%,-27%
Cc1ccc(CN2Cc3ccc(Br)cc3-n3nncc3C2)cc1,5%,11%

Single records (already shown). Order of screens: Vaccinia Venus	Vaccinia mCherry
`NC(c1ccccc1)c1csc(Nc2ccc(C(=O)NCCCO)cn2)n1` (centres undefined) is listed as -17%	-29%
`COc1ccc(S(=O)(=O)N2CCCCCC2)cc1C(=O)OCc1cccc(OC)c1OC` is listed as -13%	-19%
`COc1ccc(Cn2nnnc2CN(CCCN2CCOCC2)Cc2cc3cc(OC)ccc3[nH]c2=O)cc1` is listed as -12%	-14%
`CCn1c(=O)n(-c2ccc(F)cc2)c(=O)c2sc3ccccc3c21` is listed as 1%	-11%
`CC(C)(C)OC(=O)C[C@@H]1C/C=C\C[C@@H](CC(=O)N(CCO)Cc2ccccc2)C(=O)N[C@@H](c2ccccc2)COC1=O` is listed as ?	i

Random draw from the library; any-hit rate near 0.87%.
